# gsp antag – gsp mutant antagonism | gsp-mutant cells, cAMP HTRF, 30 min; control for the full effect not named in the record | Potency, µM (titrated, usually from 76.9 µM), for inactives: at the top dose activity change, negative = inhibition, hits mostly inhibitors | hit rate 0.4% among 340,000 | AID 624288; active = falling curve of any shape with a large fitted effect; inconclusive = falling curve, mostly with a smaller effect; inactive = flat or rising curve; cell line not stated here;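 further: intracellular cAMP measured with PDE inhibitor Ro 20-1724 present during compound exposure; potency means the concentration at half of the fitted maximal effect; on the % scale 0 is the no-effect control and ±100 the full control effect; nearly all actives have a fitted effect of over 65% in size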
#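 HTRF cAMP measurement after 30 min RT detection following 30 min, 37C compound treatment alongside […] (added as 300 uM solution) in G418-selected cells seeded at 2000/well and grown 16–24 h.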
# Sfp inh – Sfp phosphopantetheinyl transferase inhibition; Q9F4F7; Biochemical Sfp PPTase activity, qHTS; Potency, µM, for inactives: max response, negative = inhibition, hits mostly inhibitors; hit rate 3.5% among 310,000; AID 1490; active means well fitted inhibition curve with a large enough effect; inconclusive means small, poorly fitted or top-dose-only effect, or another doubt; inactive means no such curve, though single readings can be large or run the other way;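 further: the enzyme is Sfp with the accession as filed and its product quenches rhodamine fluorescence; potency means the concentration at half of the fitted maximal effect; 0% = enzyme reaction without inhibitor and -100% = no enzyme wells; top concentration of the series not given in the record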
#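 Step 1, compound plus 15 nM Sfp-PPTase, 15 min, room temperature. Step 2, add rhodamine-CoA (5 uM) and BHQ-2-YbbR (12.5 uM). Step 3, read 525/598 nm fluorescence at 0 and 30 min.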
# PINK1 expr mod – PINK1 expression modulation | PINK1 immunofluorescence, high-content cytometry, 24 h | Potency, µM (series often up to 76.6 µM), inactives show at the top dose activation (PINK1 increase), most hits filed as activators | hit rate 0.2% among 410,000 | AID 624263; active = well fitted activation curve with a large enough effect; inconclusive = small, poorly fitted or top-dose-only effect; inactive = flat fitted curve, though single readings scatter; cell line not stated here;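 further: potency means the concentration at half of the fitted maximal effect; % of control where 0% means no effect; nearly all actives have a fitted effect of over 65% in size; a mitochondrial uncoupler was the plate control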
#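 Stable cell line, 250 cells/well, 12 h attachment; compounds pinned at 5 concentrations, 24 h; CCCP control. Fixed with nuclear dye, primary antibodies 12 h at 10 degrees C, secondary plus cell stain; laser-scanning cytometer read.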
# Menin MLL FP FL – inhibitors of human menin-MLL interaction, wild-type MLL peptide; FP activity change, % at 61.4 µM; AID 1766; Fluorescence polarization, fluorescein-MLL peptide displacement from menin; 290,000 tested, under 10 active; inconclusive = falling polarisation curve, or a change in total fluorescence; inactive = total fluorescence flat and polarisation flat or rising; no compound was filed as active; the % refers to the polarisation; negative = inhibition;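 further: % of control where 0% means no effect; inhibitors lower the polarisation; unlabelled MLL peptide was the positive control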
# D2 ag – activates the human D2 dopamine receptor. activation, % (test concentration not listed). hit rate 0.084% among 360,000. P14416. DiscoveRx PathHunter D2 beta-arrestin, luminescence, 90 min; 100% = 57 uM dopamine signal. AID 624465; in the data active = activation above about 40%; inconclusive = about 15% to 40%; inactive = below about 15%; further: compound concentration not given in the record; the text of the record calls up to 30% inactive
# Target sequence (P14416 whole entry, looked up): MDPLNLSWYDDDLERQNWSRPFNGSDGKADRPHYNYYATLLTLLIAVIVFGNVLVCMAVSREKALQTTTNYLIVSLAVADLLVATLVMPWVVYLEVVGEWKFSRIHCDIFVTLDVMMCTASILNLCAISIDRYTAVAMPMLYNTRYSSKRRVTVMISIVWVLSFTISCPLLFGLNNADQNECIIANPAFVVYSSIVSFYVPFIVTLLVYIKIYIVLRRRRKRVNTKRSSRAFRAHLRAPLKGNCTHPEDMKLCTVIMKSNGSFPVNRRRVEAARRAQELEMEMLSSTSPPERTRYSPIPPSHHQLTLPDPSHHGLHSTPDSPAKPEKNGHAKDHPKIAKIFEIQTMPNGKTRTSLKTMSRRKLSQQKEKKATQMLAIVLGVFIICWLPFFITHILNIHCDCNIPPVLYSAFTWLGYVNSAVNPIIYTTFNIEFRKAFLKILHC
#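 Agonist mode: compounds alone added to overnight-plated D2 PathHunter cells for 90 min at 37 C, with 57 uM final dopamine (EC100) defining full response. Beta-arrestin recruitment detected by chemiluminescent reagent, read after 1 h at ambient temperature.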
# gsp agonist – activates gsp, the McCune-Albright syndrome mutation. gsp mutant cells, cAMP HTRF, 30 min; control for the full effect not named in the record. Potency, µM (titrated, usually from 76.9 µM), inactives show at the highest dose activation (cAMP increase), most hits filed as activators. hit rate 0.13% among 340,000. AID 624287; active = well fitted activation curve with a large enough effect; inconclusive = small, poorly fitted or top-dose-only effect, or another doubt; inactive = no such curve, though single readings can be large or run the other way; cell line not stated here;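 further: phosphodiesterase inhibitor Ro 20-1724 added with compounds to block cAMP breakdown; potency means the concentration at half of the fitted maximal effect; nearly all actives have a fitted effect of over 60% in size; about a fifth of the inactives were tested at one dose only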
#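 Cells stably selected in G418 were plated at 2000/well, grown 16-24 hr, then given compounds in DMSO with the PDE inhibitor […] (300 uM solution added) for 30 min at 37C; cAMP was read by HTRF.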
# ClpP mod – qHTS Assay for Activators of ClpP | purified B. subtilis ClpP, FRET peptide cleavage, 20 min | Potency, µM (titrated, usually from 57.5 µM), for inactives: at the highest dose activity change, negative = active | hit rate 1.9% among 340,000; active = well fitted falling curve with a large enough effect; inconclusive = small, poorly fitted or top-dose-only effect; inactive = no such curve, though single readings can be large or run the other way; further: potency means the concentration at half of the fitted maximal effect; the source files actives as falling curves though it sought activators and does not explain the sign; nearly all actives have a fitted effect of over 65% in size; many hits overshoot -100%
# Target sequence (P80244 whole entry, looked up): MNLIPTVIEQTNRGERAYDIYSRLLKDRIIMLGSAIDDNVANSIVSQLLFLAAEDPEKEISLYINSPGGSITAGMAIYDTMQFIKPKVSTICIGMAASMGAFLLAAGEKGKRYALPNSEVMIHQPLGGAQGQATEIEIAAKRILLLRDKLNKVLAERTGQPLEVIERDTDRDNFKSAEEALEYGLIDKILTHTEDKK
#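 Buffer: 100 mM Tris/HCl pH8, 100 mM KCl, 0.05% low protease BSA, 2.5% glycerol, 0.01% Tween-20. ClpP 10 microg/mL final; 20 min RT; delta FRET normalized to ADEP and DMSO controls.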
# * = called active by the depositor; ? = inconclusive; nt = no result given; [ ] = dose if it differs, or a comment.
SMILES,gsp antag,Sfp inh,PINK1 expr mod,Menin MLL FP FL,D2 ag,gsp agonist,ClpP mod
CSc1nnc(C)c(=O)n1COC(=O)c1ccc([N+](=O)[O-])cc1,4%,9%,-0.5%,-6.8,0.6,-17%,nt
CCOc1ccccc1CN1CCN(Cc2c[nH]c3ccccc23)CC1CCO (stereo not drawn),4%,20%,0.0%,2.5,-3.7,-47%[inhibitor],1.2%
Cc1cc2cc(CNC(=O)c3ccc(S(=O)(=O)N4CCOCC4)cc3)ccc2[nH]1,2%,4%,0.4%,-14,3.2,3%,-1.9%
CC(OC(=O)c1ccc2ncsc2c1)C(=O)Nc1ncc(Cl)cc1Cl (stereo not drawn),-8%,6%,1.1%,5.5,0.3,4%[15.4 µM],0.6%
COc1ccc(CNC(=O)C2CCN(S(=O)(=O)c3cc(OC)ccc3OC)CC2)cc1,3%,23%,-0.6%,0.3,1.6,-15%,-0.6%
Cc1c(Cl)cccc1NC(=O)c1ccc(-n2ccnc2)nc1,-18%,11%,-0.4%,1.8,-0.6,-16%,-0.8%
Cc1ccc(C(=O)NCC(=O)O)cc1S(=O)(=O)N1CCCCC1,12%,12%,-0.6%,0.4,0.2,-3%,-0.8%
CCc1nnc(NC(=O)CSc2nc3c(c(=O)n2-c2ccccc2OC)SCC3)s1,?,?,5.0%,-3.9,0.4,-22%,0.1%
CC1(C)C[C@H]2C3=CCC4[C@@]5(C)CC[C@H](O[C@@H]6O[C@H](C(=O)O)[C@@H](O)[C@H](O)[C@H]6O)[C@@](C)(CO)C5CC[C@@]4(C)[C@]3(C)C[C@H](O)[C@@]2(CO)[C@@H](O)[C@@H]1O (stereo partly drawn),7%,nt,3.3%,nt,-1.4,nt,0.0%
O=C(Nc1cccc(-c2nc3ccccc3s2)c1)c1cc(=O)c2ccccc2o1,0%,-22%,?,-0.1,-7.2,-6%,2.2%
Cc1nn(C(C)(C)C)c(OC(=O)c2ccc3c(c2)OCO3)c1S(=O)(=O)c1ccccc1,4%,2%,-1.5%,0.2,-3.1,?,?
COc1cccc(C(=O)OCCN2CCCCC2)c1,12%,3%,-1.0%,7.5,-2.8,-28%,-9.8%
COCCCNC(=O)c1csc([C@H]2C[C@H](O)[C@@H](CO)O2)n1,nt,nt,1.7%,nt,-1.8,nt,-0.9%
CCOC(=O)C1(Cc2ccccc2)CCN(Cc2ccc(C)s2)CC1,nt,16%,?,1.5,-0.8,-5%[15.4 µM],nt
O=C(O)c1ccc(N/N=C/c2cccc3cccnc23)cc1,?,-4%,0.8%,17,-6.7,-2%,1.1%
Clc1ccc2nc(-c3ccccn3)c(Nc3ccc4c(c3)OCO4)n2c1,4%,-3%,9.0%,0.3,-3.6,25%[15.4 µM],-1.5%
Cc1ccnc(NC(=O)CCC(=O)N(CC(=O)NC(C)(C)C)c2ccc(F)c(Cl)c2)c1,0%,8%,-3.0%,-0.5,3.7,2%,nt
Cc1cccc(N2C(=O)CC(Cn3nc(C)cc3C)C2=O)c1 (stereo not drawn),5%,12%,1.3%,-3.9,-4.4,1%,1.9%
CCn1c(C)nc2cc(C(=O)NNC(=S)NC(=O)c3ccc(OC)cc3)ccc21,-10%,28%,-0.6%,-4.5,2.8,-42%[inhibitor],0.9%
COc1ccc(OCC(=O)NC(CC(=O)O)c2ccc(OC)c(OC)c2)cc1 (stereo not drawn),15%,19%,2.1%,-0.5,-7.0,17%[15.4 µM],nt
C/C(NC(=O)c1cccs1)=C1\C(=O)C[C@@H]2[C@H]1C2(C)C,-9%,8%,-1.1%,5.5,-1.4,-3%,-0.9%
COCCCNC(=O)C(=O)C1C(=O)Nc2ccccc21 (stereo not drawn),0%,11%,1.0%,0.4,6.1,-31%,nt
CC(=O)Nc1ccc(NC(=O)C(C)OC(=O)/C=C/c2cnc3ccccc3n2)cc1 (stereo not drawn),?,12%,-0.9%,0.0,0.1,24%,-1.4%
Cc1nc2c3ccccc3n(CC#N)c(=O)n2n1,16%,-1%,0.7%,6.0,-3.0,?,-12%
Cc1ccc(NC(=O)CNc2ccc(Cl)cc2F)cc1,?,14%,6.5%,1.0,0.2,-5%,-4.1%
CCc1ccc(N(C(=O)C(F)(F)F)C(C(=O)NC2CCCCC2)c2ccncc2)cc1 (stereo not drawn),-4%,18%,nt,1.2,-1.1,-8%,0.5%
COc1ccc(C(=O)Cn2cnc3ccccc3c2=O)cc1OC,0%,7%,1.6%,-8.6,-4.0,-15%,nt
Cc1cc(=O)[nH]c(N/N=C/c2ccc(Br)s2)n1,7%,5%,-2.0%,0.3,-3.8,4%,-2.5%
CCn1nnnc1SCC(=O)c1ccc(C)cc1,-1%,-1%,-1.2%,0.6,-0.7,-51%[inhibitor],-1.4%
NCCc1nc(-c2ccccc2)cs1,5%,11%,-1.4%,-2.2,-0.7,-12%[15.4 µM],0.3%
CCN(C1CCCCC1)S(=O)(=O)CCNC(=O)c1ccccc1,4%,nt,-2.9%,nt,-1.0,-10%,-5.3%
CN(C)Cc1ccccc1-c1ccc2ncnc(NC3CC3)c2c1,nt,-8%,-0.3%,-3.2,nt,nt,nt
CCCCCCNS(=O)(=O)c1nc2nc(C)cc(C)n2n1,4%,10%,0.9%,-3.6,-5.2,-22%,-2.3%
CCn1c(SCC(=O)Nc2ccc(OC)cc2)nnc1-c1ccco1,8%,13%,-1.2%,3.4,-0.5,-10%,-0.8%
COc1ccc(Br)cc1C(=O)Nc1ccc(N2CCN(S(C)(=O)=O)CC2)cc1,7%,5%,-0.3%,0.2,0.5,-4%,-12%
COc1ccc(C)cc1NC(=O)CSCc1cc(=O)n2c(C)csc2n1,8%,nt,0.7%,nt,-5.3,1%,-3.2%
CCOC(=O)C1=CN(Cc2cccc(F)c2)S(=O)(=O)N(C)C1c1ccccc1 (stereo not drawn),2%,nt,-0.2%,nt,2.2,nt,-0.7%
Cc1ccc(F)cc1C(=O)N1CCCCC1c1cc(C(=O)NC(C)C)no1 (stereo not drawn),nt,nt,0.4%,nt,-5.5,nt,-1.2%
COC(=O)CSc1nc2c(cnn2-c2ccc(Cl)cc2)c(=O)[nH]1,-3%,7%,-2.5%,4.0,10,14%,-0.2%
CCC(CO)Oc1cc(NCc2ccc(C)cc2)c2ncn(C(C)C)c2c1 (stereo not drawn),10%,nt,1.8%,nt,8.7,nt,-4.4%
O=C1CCCCCN1Cc1ccccc1,10%,19%,-0.8%,0.3,-0.9,15%,-2.4%
Cc1sc(NC(=O)c2cccs2)c(C(N)=O)c1C,-5%,40µM*,nt,-2.4,0.3,37%,0.6%
CCCCN1CCc2c(c3ccccc3n2Cc2ccccc2)C1,0%,12%,12%,0.0,-0.7,-17%,4.0%
NC(=O)N/N=C/c1ccc(-c2cccc(C(F)(F)F)c2)o1,-10%,9%,6.5%,3.4,-5.4,17%,-6.7%
CCN(CC)C(=O)c1ccc(-c2nnc(OC)c3ccccc23)cc1,-23%,8%,1.1%,1.1,-2.4,-3%[15.4 µM],nt
CCOc1ccccc1NC(=O)CSc1nnnn1-c1ccc(C(=O)OC)cc1,2%,-1%,-3.0%[38.3 µM],1.5,-1.4,-17%,1.0%
CCN(CC)CCN(C(=O)c1ccc(C(=O)c2ccccc2)cc1)c1nc2c(OC)cccc2s1,-4%,?,-0.4%,-0.8,-1.8,-5%,1.9%
COc1c(C)cc(C(=O)C2CCCN(C(=O)Cn3nc(C)nc3C)C2)cc1C (stereo not drawn),-8%,4%,0.9%,-1.6,-3.0,?,-1.1%
CCC(=NCCc1ccc(OC)c(OC)c1)C1=C(O)CC(C)(C)CC1=O,8%,18%,0.1%,-4.0,-3.5,6%[15.4 µM],nt
CN(C(=O)COC(=O)c1ccc(Cl)nc1)c1c(N)n(Cc2ccccc2)c(=O)[nH]c1=O,-2%,nt,4.6%,nt,1.2,-10%,3.1%
COc1ccc(-c2csc(NC(=O)c3cccc(N4C(=O)CCC4=O)c3)n2)cc1C,-5%,-1%,13%,2.4,-4.2,-40%[inhibitor],-0.8%
CCOC(=O)C1CSC(CC(=O)Nc2ccc(OCC)cc2)C(=O)N1 (stereo not drawn),5%,15%,0.3%,4.4,1.2,11%,-0.3%
Cc1nnnn1/C(=C\c1ccccc1)C(=O)OCC(=O)NC1CCCCC1,-15%,nt,-2.5%,nt,2.1,-11%,-0.5%
CCN(CC)c1ncnc2c1ncn2[C@H]1CN(C2CCCC2)C[C@@H](CO)O1,nt,nt,0.0%,nt,-6.0,nt,-2.9%
O=C1NC(=S)N/C1=C\c1ccccc1OCc1ccc(C(=O)O)cc1,6%,-7%,-2.4%,-0.1,-1.6,1%[15.4 µM],nt
CN1CCN(C(=O)CCNC(=O)Cn2ccc3ccccc3c2=O)CC1,-3%,17%,-2.5%,4.1,-2.8,4%,-24%
O=C1C=C(NCc2ccc3c(c2)OCO3)CC(c2ccccc2)C1 (stereo not drawn),nt,13%,2.7%,5.0,-1.0,-1%[15.4 µM],nt
CSc1nc(N)nc2c1ncn2CC(=O)Nc1ccc(C)c(C)c1,-3%,nt,-0.7%,nt,-1.0,nt,-0.1%
O=C(c1cc(-c2ccco2)on1)N1CCN(c2ccccc2)CC1,5%,8%,3.8%,12,-0.2,-17%,-3.0%
COc1ccc(CCc2nnc(CCC(=O)NCc3ccc4ncccc4c3)o2)cc1,-11%,14%,-1.0%,0.4,5.5,11%[15.4 µM],nt
CCN(CC(=O)NCc1ccc(Cl)cc1)CC(=O)Nc1ccc(C(N)=O)cc1,-10%,0%,1.0%,1.1,-5.3,-9%[15.4 µM],nt
Cn1nc(C(C)(C)C)cc1NC(=O)C1(C)CCN1C(=O)C1(c2ccccc2)CCCC1 (stereo not drawn),nt,nt,5.6%,nt,-2.9,nt,0.3%
Cc1ccc2oc(-c3ccc(C)c(NC(=S)NC(=O)c4cccs4)c3)nc2c1,-25%,-23%,0.6%,8.2,4.3,14%,-4.8%
